# TRPV1 potentiator: enhances activation of the human vanilloid receptor TRPV1 | actives 0.02% (n = 320,000) | Q8NER1 | AID 540277 | TRPV1-expressing cells, Fluo-8 calcium influx, capsaicin EC20 potentiation; host cell line not named in the record; control for the full effect not named in the record | potentiation, % at 8.33 µM; active means potentiation above 80%; inconclusive means 30% to 80%; inactive means below 30%; also: 0% is about no effect
#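 Fluo-8 calcium influx in TRPV1-expressing cells, kinetic read (ex 480/em 520 nm). Compound added and read 3 min for agonist activity, followed by capsaicin at EC20 final and 2 min further read for enhancement.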
# Menin MLL FP FL: menin-MLL binding inhibition, fluorescein peptide. 290,000 tested, under 10 active. FP activity change, % at 61.4 µM. Fluorescence polarization, fluorescein-MLL peptide displacement from menin; inconclusive = falling polarisation curve, or a change in total fluorescence; inactive = total fluorescence flat and polarisation flat or rising; no compound was filed as active; the % refers to the polarisation; negative = inhibition;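 also: % of control where 0% means no effect; inhibitors lower the polarisation; unlabelled MLL peptide was the positive control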
# gsp antag: antagonizes gsp, the McCune-Albright syndrome mutation; actives 0.4% (n = 340,000); Potency, µM (series often up to 76.9 µM), without a hit: top-dose activity change, negative = inhibition, actives largely listed as inhibitors; gsp-mutant cells, cAMP HTRF, 30 min; control for the full effect not named in the record; active = falling curve of any shape with a large fitted effect; inconclusive = falling curve, mostly with a smaller effect; inactive = flat or rising curve; cell line not stated here;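 also: intracellular cAMP measured with PDE inhibitor Ro 20-1724 present during compound exposure; potency is read from the fitted curve at half-maximal effect; % is scaled to controls: 0 for no effect and ±100 for the full control effect; nearly all actives have a fitted effect of over 65% in size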
#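 G418-selected cells were plated in DMEM/10% FBS for 16-24 h at 37C, then treated with compounds plus the PDE inhibitor […] (300 uM solution added) for 30 min at 37C. Intracellular cAMP was measured by HTRF after 30 min lysis at room temperature.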
# Sfp inh: blocks B. subtilis Sfp PPTase activity. Q9F4F7. Biochemical Sfp PPTase activity, qHTS. Potency, µM, for inactives: max response, negative = inhibition, usual class: inhibitors. actives 3.5% (n = 310,000). AID 1490; active = well fitted inhibition curve with a large enough effect; inconclusive = small, poorly fitted or top-dose-only effect, or another doubt; inactive = no such curve, though single readings can be large or run the other way;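 also: the enzyme is Sfp with the accession as filed and its product quenches rhodamine fluorescence; potency is read from the fitted curve at half-maximal effect; 0% = enzyme reaction without inhibitor and -100% = no enzyme wells; top concentration of the series not given in the record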
#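 Fluorescence-quenching assay: 15 nM Sfp-PPTase preincubated 15 min at room temperature with compound, then 5 uM rhodamine-CoA and 12.5 uM BHQ-2-labelled YbbR peptide added. Fluorescence (ex 525/em 598 nm) read at start and after 30 min; difference gives rate.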
# gsp ag: activates gsp, the McCune-Albright syndrome mutation. gsp mutant cells, cAMP HTRF, 30 min; control for the full effect not named in the record. Potency, µM (titrated, usually from 76.9 µM), without a hit: top-dose activation (cAMP increase), most hits filed as activators. actives 0.13% (n = 340,000); active = well fitted activation curve with a large enough effect; inconclusive = small, poorly fitted or top-dose-only effect, or another doubt; inactive = no such curve, though single readings can be large or run the other way; cell line not stated here;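 also: phosphodiesterase inhibitor Ro 20-1724 added with compounds to block cAMP breakdown; potency is read from the fitted curve at half-maximal effect; nearly all actives have a fitted effect of over 60% in size; about a fifth of the inactives were tested at one dose only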
#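 Cells stably selected in G418 were plated at 2000/well, grown 16-24 hr, then given compounds in DMSO with the PDE inhibitor […] (300 uM solution added) for 30 min at 37C; cAMP was read by HTRF.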
# ClpP mod: qHTS Assay for Activators of ClpP; purified B. subtilis ClpP, FRET peptide cleavage, 20 min; Potency, µM (titrated, usually from 57.5 µM), without a hit: top-dose activity change, negative = active; actives 1.9% (n = 340,000); ATP-dependent Clp protease proteolytic subunit (Bacillus subtilis (strain 168)), P80244; AID 651965, 2013; active = well fitted falling curve with a large enough effect; inconclusive = small, poorly fitted or top-dose-only effect; inactive = no such curve, though single readings can be large or run the other way; also: potency is read from the fitted curve at half-maximal effect; the source files actives as falling curves though it sought activators and does not explain the sign; nearly all actives have a fitted effect of over 65% in size; many hits overshoot -100%
# Target sequence (P80244 whole entry, looked up): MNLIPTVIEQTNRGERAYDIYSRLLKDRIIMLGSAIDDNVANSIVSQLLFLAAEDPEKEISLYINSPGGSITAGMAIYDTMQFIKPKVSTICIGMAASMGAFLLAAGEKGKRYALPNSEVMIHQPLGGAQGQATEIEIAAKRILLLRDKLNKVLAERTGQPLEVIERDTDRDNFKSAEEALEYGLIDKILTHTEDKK
#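 Purified B. subtilis ClpP, 10 microg/mL final in Tris/HCl pH8 with KCl, BSA, glycerol and Tween-20, cleaved an Abz/nitrotyrosine-quenched decapeptide. Fluorescence (ex 320, em 430) was read at 0 and 20 min at room temperature. Delta was normalized to 5.8 microM ADEP and DMSO/no-enzyme controls.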
# D2 potentiator: positive allosteric modulators of human D2 dopamine receptor; DiscoveRx D2 beta-arrestin cells, luminescence, 90 min; 100% = 57 uM dopamine signal; potentiation, % (no concentration beside the values); actives 0.23% (n = 360,000); AID 624464; active = potentiation of 50% or more; inconclusive = 30% to 50%; inactive = 30% or less;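 also: compound concentration not given in the record; tested on top of an EC20 dose of dopamine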
# Target sequence (P14416 whole entry, looked up): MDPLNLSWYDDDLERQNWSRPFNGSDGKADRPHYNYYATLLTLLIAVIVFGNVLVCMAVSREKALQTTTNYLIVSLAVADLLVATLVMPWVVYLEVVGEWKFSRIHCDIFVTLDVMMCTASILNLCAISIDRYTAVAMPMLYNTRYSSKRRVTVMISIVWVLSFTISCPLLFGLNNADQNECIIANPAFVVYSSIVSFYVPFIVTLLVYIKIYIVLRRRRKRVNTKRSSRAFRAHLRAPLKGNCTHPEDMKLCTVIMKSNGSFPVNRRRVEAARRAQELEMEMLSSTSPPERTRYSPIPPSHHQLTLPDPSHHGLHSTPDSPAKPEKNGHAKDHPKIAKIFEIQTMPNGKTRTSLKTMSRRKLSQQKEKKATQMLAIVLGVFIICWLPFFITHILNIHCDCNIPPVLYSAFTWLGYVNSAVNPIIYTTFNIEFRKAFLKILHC
#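 PathHunter beta-arrestin assay in DiscoveRx D2 cells. Compounds were added with an EC20 of dopamine (50 nM final) for 90 min at 37 deg C. Luminescence was read 1 h after detection reagent, with 57 uM dopamine as the EC100 control.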
# * marks the source's active call; other numbers are inactive results; ? = inconclusive; . = not tested or not shown; & = joins results of further samples; [ ] = another dose, or the depositor's remark.
SMILES,TRPV1 potentiator,Menin MLL FP FL,gsp antag,Sfp inh,gsp ag,ClpP mod,D2 potentiator
CC(C)CC1Nc2ccc(C(=O)NCCCN3CCCCC3C)cc2NC1=O (stereo not given),3.7,.,3.1%,8.1%,?,3.9%,-23.3
O=C(CN1CCN(C(=O)c2ccco2)CC1)NCc1ccc(Cl)cc1,28.5,.,-13.0%,-4.0%,3.9%[15.4 µM],-1.0%,7.2
CS(=O)(=O)c1ccc(NC(=O)c2ccc3c(c2)S(=O)(=O)N=C2CCCCCN23)cc1,0.3,.,-0.9%,.,20.0%,1.3%,-17.3
COc1ccc(N(CC(=O)Nc2ccccc2OC)S(=O)(=O)c2ccc(NC(C)=O)cc2)cc1,-2.2,1.8,5.5%,-3.4%,-11.3%[15.4 µM],-1.4%,-19.1
COCCn1c(C)cc(C(=O)COc2ncnc3ccc(Br)cc23)c1C,-4.6,-2.3,-2.4%,-2.9%,-13.3%[15.4 µM],.,-2.9
CN(CC(=O)NC(=O)NC1CCCCC1)c1ccccc1,0.0,.,13.3%,.,-47.3%[inhibitor],-0.4%,-2.8
COC(=O)C1CCN(Cc2c(C(=O)N3C[C@@H](C)O[C@@H](C)C3)nc3ccc(Cl)cn23)CC1,-1.7,.,9.3%,9.0%,?,-3.2%,-21.3
COc1ccc(CCNC(=O)c2cccs2)cc1OC,0.4,-0.2,1.2%,28.6%,?,-2.0%,-5.0
O=C(C1=C[C@H](c2ccccc2)C[C@H](OCc2ccc(CO)cc2)O1)N1CCOCC1,-3.4,-2.7,4.7%,2.8%,.,1.7%,-1.0
O=C(COC(=O)c1ccncc1)c1ccccc1,-1.8,-0.8,11.2%,3.4%,-17.0%[15.4 µM],.,-2.3
CCOC(=O)N1CCN(C(=O)C2CCN(S(=O)(=O)c3ccc(C)cc3)CC2)CC1,-4.7,4.5,3.3%,10.0%,-31.7%[inhibitor],1.1%,-14.2
O=[N+]([O-])c1ccc(N/N=C/c2c[nH]c3ccccc23)cc1,5.8,?,-12.4%,7.2%,-19.6%[15.4 µM],-1.1%,-28.6
COc1ccccc1/C=C/CN1CCC(n2nccc2NC(=O)CCc2ccccc2)CC1,0.3,-0.4,-14.3%,13.9%,-40.9%[inhibitor],-7.2%,-12.7
Cc1sc(N2C(=O)C3C(C2=O)[C@H]2C=C[C@@H]3C2)c(C#N)c1C (stereo not given in full),3.0,4.6,-3.1%,12.4%,5.0%,0.7%,-5.0
COc1cccc(CNC(=O)C2CCN(C(=O)N3CC(C)Oc4ccccc43)CC2)c1 (stereo not given),-31.3,-3.0,-4.5%,14.6%,-64.0%[inhibitor],-0.7%,-6.1
CCCCCCCCNC(C)C(O)c1ccc(SC(C)C)cc1 (stereo not given),-4.0,-1.7&-3.8,3.2%,?,.,-0.9%,-22.1
COCCN(C(=O)COc1ccccc1)c1nnc(-c2cccnc2)s1,7.9,3.0,4.3%,17.8%,0.3%,4.3%,27.9
CCOC(=O)c1csc(NC(=O)c2ccc(OCC)cc2)n1,-2.3,-1.0,.,20.8%,11.5%[15.4 µM],.,-4.2
COc1ccc(C(=O)Nc2ccccc2C(=O)N2CCOCC2)cc1,?,-1.4,4.3%,-9.2%,2.4%,.,-3.1
CCc1noc(C)c1C(=O)N1CCCSC1=Nc1ccccc1,0.1,.,-2.6%,.,-1.4%[15.4 µM],-2.7%,-35.8
NNc1ccc([N+](=O)[O-])c2[nH][nH]c(=O)c12,.,.,.,.,-74.6%[inhibitor],-3.6%,-15.2
CN1CCN(c2ccc(S(=O)(=O)N3CCCCC3)cc2NC(=O)COc2ccc([N+](=O)[O-])cc2)CC1,2.8,.,-12.6%,.,?,-0.1%,-17.2
C=C(C)C(=O)Nc1ccc(NC(C)C)cc1,0.5,-2.4,-7.7%,16.9%,-13.1%,-0.3%,-8.0
CCOc1ccc(C(=O)COC(=O)c2cc(=O)[nH]c3ccccc23)cc1,1.2,.,14.3%,.,7.7%,?,-7.1
O=C1CCC(C(=O)NCc2cccnc2)N1 (stereo not given),2.6,2.1,-0.9%,11.5%,-1.7%,0.3%,-3.3

# The closing two entries of the part before are carried over, then new ones follow:
SMILES,TRPV1 potentiator,Menin MLL FP FL,gsp antag,Sfp inh,gsp ag,ClpP mod,D2 potentiator
CCOc1ccc(C(=O)COC(=O)c2cc(=O)[nH]c3ccccc23)cc1,1.2,.,14.3%,.,7.7%,?,-7.1
O=C1CCC(C(=O)NCc2cccnc2)N1 (stereo not given),2.6,2.1,-0.9%,11.5%,-1.7%,0.3%,-3.3
O=C1CN(C(=O)c2cc3ccccc3o2)c2ccccc2N1,-2.7,26.4,2.9%,-0.5%,0.1%[15.4 µM],2.1%,-2.5
O=C(/C=C/c1ccccc1[N+](=O)[O-])NCC1CCCO1 (stereo not given),-10.8,2.2,3.4%,-1.4%,-22.7%,1.8%,-24.2
COCCNC(=S)N/N=C/c1ccccc1C(=O)O,-3.4,0.2,6.8%,63.1µM*,-13.8%,-5.3%,8.4
CCOC(=O)N1CCN(C(=O)Nc2ccccc2)CC1,16.4,0.0,-4.0%,0.3%,15.7%[15.4 µM],-9.5%,-3.3
COc1cc(CCC(=O)OCc2ccccc2C#N)cc(OC)c1OC,28.5,1.0,.,13.0%,9.0%[15.4 µM],.,2.3
CCOC(=O)C1CCN(C2CC(=O)N(c3cccc(Cl)c3)C2=O)CC1 (stereo not given),-2.0,-0.2,-5.0%,-4.4%,?,1.4%,-12.7
CCOCCCNC(=S)Nc1ccc2nc(N3CCCC3)cc(C)c2c1,4.0,-2.0,7.4%,2.5%,-14.4%,-6.1%,-25.6
O=S(=O)(CCN1C=CC(C(F)(F)F)=NCC1)c1ccc(F)cc1,-1.4,1.0,0.6%,15.0%,-2.6%[15.4 µM],-2.5%,8.6
N#Cc1cnn(-c2ccccc2)c1N,?,-5.0,0.2%,-10.2%,0.3%,0.0%,-4.0
O=C(/C=C/c1ccccc1)c1ccc2ccccc2c1,.,.,-7.0%,.,23.5%,.,-10.1
CC(NC(=O)c1ccncc1)c1ccc(Cl)cc1Cl (stereo not given),22.2,3.0,3.4%,10.2%,0.2%,.,-4.3
CC1CC(C)CN(S(=O)(=O)c2ccc3c(c2)oc(=O)n3CC(=O)NCc2cccnc2)C1 (stereo not given),-0.6,-1.4,-13.7%,29.0%,16.1%,-0.3%,-4.3
O=C(C1CCN(S(=O)(=O)c2cccc3cccnc23)CC1)N1CCN(c2ccc(Cl)cc2)CC1,.,6.2,?,15.9%,22.2%,-0.6%,0.9
CCOc1ccc(CCNC(=O)Nc2cccc(OC)c2)cc1OCC,-10.4,-2.2,2.3%,11.1%,3.6%,0.8%,-1.6
CC1(C)Cc2c(cnn2-c2ccccc2)C(=O)/C1=N\NC(=O)c1ccccc1N,5.5,3.2,-10.0%,18.4%,3.3%,0.6%,-2.1
Cn1nc(C(C)(C)C)cc1C(=O)NN1CCOCC1,15.7,.,7.5%,11.2%,-1.2%,-1.2%,-8.2
O=C1CCc2cc(S(=O)(=O)NC(Cc3ccccc3)C(=O)NCC3CCCO3)ccc2N1 (stereo not given),-18.8,2.5,-3.3%,7.5%,-44.0%[inhibitor],0.0%,-8.2
CC(C)NC(=O)c1cc2cc([N+](=O)[O-])ccc2s1,-13.8,0.5,-3.4%,1.8%,9.6%,1.0%,-5.7
Cc1nn2c([nH]c(=O)c3ccccc32)c1C=O,15.0,1.4,0.5%,-2.9%,-37.0%,-4.7%,-11.9
CC(C)CNC(=O)COC(=O)c1ccc(Cl)c(S(=O)(=O)N2CCc3ccccc32)c1,-0.5,-7.9,-2.7%,-3.4%,-17.2%,.,-10.8
CCN1C(=O)C2(SC(NC(C)=O)=NN2C(C)=O)c2cc(C)cc(C)c21 (stereo not given),-7.1,1.8,7.9%,6.2%,-32.9%[inhibitor],?,-4.2
CCC(=O)Nc1ccc(C(=O)NNC(=O)Cc2ccccc2)cc1,-1.1,7.5,9.9%,-2.9%,-1.1%,-1.8%,-8.5
O=C(N/C(=C/c1cccs1)C(=O)N1CCCCCC1)c1ccccc1,3.8,3.3,16.3%,-6.5%,-2.0%,-2.3%,-8.6
CCN1CCN(C(c2cccs2)C(C)NC(=O)C(C)C)CC1 (stereo not given),8.7,-4.5,8.3%,16.6%,40.1%,0.4%,-0.3
Cc1ccccc1C(=O)Nc1cccc(N)c1,1.4,0.0,-8.6%,2.6%,-8.2%,1.1%,?

# (continued)
SMILES,TRPV1 potentiator,Menin MLL FP FL,gsp antag,Sfp inh,gsp ag,ClpP mod,D2 potentiator
O=C(CN1CCCC1c1cccs1)N1CCN(S(=O)(=O)c2cccc(F)c2)CC1 (stereo not given),-7.6,.,-8.9%,.,10.4%,-1.8%,-2.1
Cc1ccc(C)c(CNS(=O)(=O)c2c(C(=O)N3CCCC3)c(C)n(C)c2C)c1,8.2,-3.0,7.2%,-2.2%,-1.0%,-4.1%,-7.9
Cc1cccc(OCCCC(=O)Nc2nccs2)c1,-7.6,3.5,3.6%,0.8%,-0.8%,0.3%,-4.7
O=C(CNC(=O)c1cnccc1C(F)(F)F)c1cccc(Cl)c1,6.0,-1.8,8.9%,8.1%,-3.3%[15.4 µM],.,-7.1
O=S(=O)(c1cccc(S(=O)(=O)N2CCC(Cc3ccccc3)CC2)c1)N1CCOCC1,4.1,-0.1,-2.6%,12.8%,-16.0%,-0.3%,-11.6
Cc1ccnc2nc(C(=O)OCC(=O)Nc3ccc([N+](=O)[O-])cc3Br)nn12,-9.5,.,5.3%,.,0.2%,2.6%,-11.9
OCC1(CCOc2ccccc2)CCN(CCCn2cccn2)CC1,0.7,1.5,1.9%,5.2%,-2.6%[15.4 µM],1.7%,-14.5
O=C(c1ccc(OC2CCN(Cc3ccccn3)CC2)cc1)N1CCCC(O)C1 (stereo not given),4.2,-5.2,0.8%,8.5%,-8.6%[15.4 µM],1.2%,-2.8
OC(CCCN1CCCCC1)(c1ccccc1)c1ccc(C(F)(F)F)cc1 (stereo not given),.,.,9.5%,.,3.2%,.,-14.5
CS(=O)(=O)Nc1ccc(C(=O)N2CCCCC2)cc1,-2.7,5.7,-8.0%,12.5%,-12.9%,-0.4%,1.5

# From PubChem BioAssay
